# KCNQ2 enhance = potentiators of rat KCNQ2 potassium channel. Potassium voltage-gated channel subfamily KQT member 2 (Rattus norvegicus), O88943. CHO-K1 KCNQ2, FluxOR thallium flux fluorescence; active compounds read high. B-score at 10 µM. 0.54% of 310,000 active. AID 2239, 2010;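 active means fluorescence ratio B-score at least 3 SD of library B-scores, with initial fluorescence B-score within 3 SD, cut at about 5.3 in these data; same plate scores as AID 2156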;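 further: B-score of peak minus minimum over baseline fluorescence ratio after K+ and Tl+ stimulus; positive B-score means potentiation of KCNQ2 with more thallium influx and brighter signal; only the inactives scoring about 0 or higher are listed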
# Target sequence (O88943 whole entry, looked up): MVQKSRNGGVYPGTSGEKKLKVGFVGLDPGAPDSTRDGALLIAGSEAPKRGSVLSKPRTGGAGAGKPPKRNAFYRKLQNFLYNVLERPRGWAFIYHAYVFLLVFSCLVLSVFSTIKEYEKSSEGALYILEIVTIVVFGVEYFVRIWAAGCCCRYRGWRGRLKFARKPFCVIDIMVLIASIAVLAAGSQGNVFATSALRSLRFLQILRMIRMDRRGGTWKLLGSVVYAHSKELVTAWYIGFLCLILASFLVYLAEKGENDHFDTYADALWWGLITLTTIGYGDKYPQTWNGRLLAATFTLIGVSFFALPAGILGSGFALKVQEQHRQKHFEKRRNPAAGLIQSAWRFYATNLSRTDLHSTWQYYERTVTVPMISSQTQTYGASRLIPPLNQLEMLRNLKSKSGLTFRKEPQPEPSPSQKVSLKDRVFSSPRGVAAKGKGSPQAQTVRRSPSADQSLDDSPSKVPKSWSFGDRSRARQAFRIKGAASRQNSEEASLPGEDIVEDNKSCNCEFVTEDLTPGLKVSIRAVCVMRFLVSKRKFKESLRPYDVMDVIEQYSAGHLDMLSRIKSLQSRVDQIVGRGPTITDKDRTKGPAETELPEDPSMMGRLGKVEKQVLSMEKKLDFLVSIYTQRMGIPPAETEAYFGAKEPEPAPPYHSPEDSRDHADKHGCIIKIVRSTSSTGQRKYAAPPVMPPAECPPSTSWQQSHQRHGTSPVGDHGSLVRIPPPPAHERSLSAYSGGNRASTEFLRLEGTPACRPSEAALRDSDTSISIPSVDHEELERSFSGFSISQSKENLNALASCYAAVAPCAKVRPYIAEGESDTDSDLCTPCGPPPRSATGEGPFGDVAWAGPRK
# KCNQ2 enhance baseline = recorded beside KCNQ2 enhance, whose call it bears; B-score; compound at 10 µM; measured here: initial fluorescence intensity artifact check;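 brightness before thallium and not channel activity; 0 = typical well and far values either way flag optical interference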
# Starred values were filed as active, the others as inactive; nt = not tested or not shown. The list is partial; rates above refer to the full screens.
Compound,KCNQ2 enhance,KCNQ2 enhance baseline
CN(C(=O)c1cn2ccccc2n1)c1c(N)n(Cc2ccccc2)c(=O)[nH]c1=O,2.61,-1.86
COc1cc(CC(=O)N(C)CC(=O)Nc2ccc(Cl)c(C(F)(F)F)c2)cc(OC)c1OC,0.01,0.06
CCc1cc2c(=O)n(Cc3ccco3)c(SCC(=O)N(C)C3CCS(=O)(=O)C3)nc2s1 (stereo not drawn),0.13,-0.91
COc1ccc(N2C(=NC(C)=O)SC3CS(=O)(=O)CC32)cc1OC (stereo not drawn),0.14,-1.7
Oc1ccccc1-c1cc(C(F)(F)C(F)F)[nH]n1,1.52,-0.38
CCc1ccc(CN(C)Cc2nc(Cc3ccccc3)no2)nc1,0.95,0.15
Cc1cc(NS(=O)(=O)c2ccc(NC(=O)CSc3nnc(-c4ccco4)n3C)cc2)nc(C)n1,0.24,0.66
CCc1cc2c(NC3CCCC3)ncnc2s1,0.55,-1.6
CCOc1cccc2sc(N(CCCN(C)C)C(=O)c3ccc(S(=O)(=O)N4CCc5ccccc5C4)cc3)nc12,2.02,0.25
CCOC(=O)Cc1csc(/N=C/c2c(O)n(-c3ccc(C)c(C)c3)c(=O)c3ccccc23)n1,0.13,2.33
CCn1c(SCC(=O)NCCOc2ccccc2)nc2ccccc2c1=O,0.67,-0.71
COc1ccc(CCNC(=O)c2coc3ccccc3c2=O)cc1,0.12,-0.73
COc1ccc(CCNc2ncnc3nc[nH]c23)cc1OC,1.63,-0.45
CC1=NN(C(N)=S)C(=O)C1N=Nc1ccc(O)cc1 (stereo not drawn),0.02,-1.51
O=C(c1ccccc1Cl)N1CCN(c2ccccn2)CC1,0.29,0.04

# Continued, starting with the last four of the part before.
Compound,KCNQ2 enhance,KCNQ2 enhance baseline
COc1ccc(CCNC(=O)c2coc3ccccc3c2=O)cc1,0.12,-0.73
COc1ccc(CCNc2ncnc3nc[nH]c23)cc1OC,1.63,-0.45
CC1=NN(C(N)=S)C(=O)C1N=Nc1ccc(O)cc1 (stereo not drawn),0.02,-1.51
O=C(c1ccccc1Cl)N1CCN(c2ccccn2)CC1,0.29,0.04
O=C(Cc1ccsc1)Nc1cc(F)ccc1F,0.79,1.24
CSCCC(NS(=O)(=O)c1ccccc1)C(=O)OCc1cc(=O)oc2cc(O)ccc12 (stereo not drawn),2.9,-0.17
O=C(CSc1nnc(SCc2ccccc2)s1)N/N=C/c1c[nH]c2ccccc12,0.93,0.07
COc1ccc(NC(=S)NC(=O)Cc2ccccc2)cc1,1.37,0.09
COc1ccc(-c2csc(NC(=O)CSCc3c(C)noc3C)n2)cc1OC,0.49,-1.04
CCOc1ccc(-n2c(=O)c3c4c(sc3n(CC(=O)NCC3CCCO3)c2=O)CCC4)cc1 (stereo not drawn),0.93,1.91
COc1ccc(OC)c(NC(=S)NCc2ccc(S(N)(=O)=O)cc2)c1,1.15,0.58
Nc1ccc(Cc2nc3cc4ccccc4cc3[nH]2)cc1,1.33,-0.86
O=C(Nc1cccnc1)Nc1ccc(Cl)cc1Cl,1.26,1.99
CSc1ccccc1C(=O)C1CCCN(C(=O)c2cc(C(C)C)no2)C1 (stereo not drawn),0.73,-0.02
CN(Cc1ccccc1)C(=O)COC(=O)Cn1cnc2ccccc21,1.16,-0.76
Cc1c(Nc2nc(-c3ccc(Cl)cc3)cs2)c(=O)n(-c2ccccc2)n1C,1.02,0.16
O=C(CCn1cnnn1)Nc1ccc(Cl)cc1Cl,0.32,-1.08
CCOC(=O)c1sc(S(C)=O)c2c1CCc1conc1-2 (stereo not drawn),0.67,-0.05
O=C(c1cccs1)c1coc2ccc(O)cc12,1.25,1.14
C/C=C/Cn1c(N(C)Cc2ccccc2)nc2c1c(=O)[nH]c(=O)n2C,1.43,1.15
Cc1ccc(C(C)NC(=O)c2ccco2)cc1 (stereo not drawn),1.8,-1.25
O=C1N2c3ccccc3CCc3cccc(c32)C1(O)C(F)(F)F (stereo not drawn),1.6,-0.04
O=C(CNC(=S)NC(=O)c1cccs1)c1ccccc1,0.29,-0.09
N#CCc1nc(CSc2nc3ccccc3o2)cs1,1.15,-0.74
CCOc1ccc(-c2nnn(CCC#N)n2)cc1OC,2.24,-2.01
COCCN1CCN(C(=O)c2cc(COc3cc(C)ccc3C)on2)CC1,1.13,0.19
COc1ccc(O)c(/C=N\NC(=O)CCn2nnc3ccccc32)c1,0.98,1.21
O=C(CN1CCN(c2ccc(F)cc2)CC1)Nc1ccc(-n2cnnn2)cc1,0.19,-2.19
C/C(=N\O)C1/C(=N/O)CC2C1C2(C)C (stereo not drawn),0.79,-0.05
O=C(NCc1nnc(SCC(=O)N2CCCc3ccccc32)o1)c1c(F)cccc1Cl,0.65,-1.25
CCOC(=O)CCC(NC(=O)CCCCCCCCC(=O)NC(CCC(=O)OCC)C(=O)OCC)C(=O)OCC (stereo not drawn),0.72,-0.23
CCN1CCc2c(C#N)c(N3CCOCC3)nc(N3CCOCC3)c2C1,0.51,-1.7
COc1ccc(OC)c(-c2c(C#N)c(N)nc3c2c(=O)nc2sccn23)c1,0.47,-1.44
Cc1cccc(NCc2ccccc2OCc2ccccc2F)c1,-5.55,nt
C=CCNc1nc(C)c(C(C)=O)cc1C#N,0.72,0.35
COCCNC(=O)c1cc(-c2ccc(Cl)c(Cl)c2)on1,0.3,1.53
Cc1cccc(CS(=O)(=O)Cc2ccc(C(=O)NC3CCCCCC3)o2)c1,0.43,-0.11
O=C(CCNC(=O)c1ccccc1Cl)Nc1cc(C(F)(F)F)ccc1Cl,0.25,0.3
CCSCCNC(=O)c1cncc(Br)c1,0.42,-0.25
O=C(O)CN1C(=O)SC(Nc2ccc(Cl)cc2)C1=O (stereo not drawn),0.47,-1.26
COc1cccc(C(=O)COc2cccc(NC(=O)c3ccco3)c2)c1,0.34,-3.29
CC(=O)c1ccc(NS(=O)(=O)c2cc3c(cc2C)N(C(C)=O)CCO3)cc1,0.72,0.19
COc1ccc(Br)cc1/C=N/NC(=O)c1cccc(S(=O)(=O)N2CCOCC2)c1,0.03,-2.03
O=C(c1ccco1)N1CCCC(c2nc3c(nnn3Cc3ccc(Cl)cc3Cl)c(=O)[nH]2)C1 (stereo not drawn),0.08,0.41
Nc1ccc(C(=O)N2CCCC2)cc1,1.02,-0.02
Cn1c(=O)n(CCO)c(=O)c2c1nc(Br)n2Cc1ccccc1,0.17,-0.88
CC(NC(=O)c1ccncc1)C(C)(C)C (stereo not drawn),16.2*,2.46*
CCC1(c2ccc(Cl)cc2)NC(=S)N(c2ccc(C)cc2)N1 (stereo not drawn),17.2*,1.32*
O=C(NCCCN1CCOCC1)c1onc(CSc2ccc(F)c(F)c2)c1C(=O)NCCCN1CCOCC1,0.27,-0.09
O=C(CCC(=O)NNC(=O)Nc1cccc(Cl)c1)NCc1ccccc1,1.26,-0.8
CCn1cc(S(=O)(=O)CC(=O)NC2CCCCC2)c2ccccc21,0.04,0.52
c1cncc(-c2nn3c(Cn4nnc5ccccc54)nnc3s2)c1,1.36,-1.76
CC1(C)Cc2c(c(-c3ccco3)nc3sc4c(NCCN5CCOCC5)ncnc4c23)CO1,1.39,-0.55
O=C(COC(=O)/C=C/c1ccc(OC(F)F)cc1)NC1CCCCCCC1,1.49,-2.08
O=C(CN1C(=O)C2C3C=CC(C3)C2C1=O)Nc1nncs1 (stereo not drawn),0.13,0.03
O=C(Nc1ccccc1)NC(Cc1ccc(O)cc1)C(=O)O (stereo not drawn),0.28,3.65
COc1cccc(/C=N\n2c(C)nnc2C)c1OC,0.35,-0.02
CCCCCCOC(=O)Cc1c(C)nc(N)[nH]c1=O,0.63,0.95
O=S(=O)(NCCCO)c1ccc2c(c1)Cc1cc(S(=O)(=O)NCCCO)ccc1-2,0.61,-1.65
O=C(O)CCC(NS(=O)(=O)c1ccc(N2CCCC2=O)cc1)C(=O)O (stereo not drawn),1.63,0.04
CCOc1ccc(Nc2nc3ccccc3n2C)cc1,0.58,0.42
CCN(C(=O)COC(=O)c1ccccc1Nc1cccc(C)c1C)C1CCS(=O)(=O)C1 (stereo not drawn),2.79,0.12
CN(C)C(=O)CSc1ncnc2scc(-c3ccccc3)c12,3.6,-0.1
CCCN(CC1CC1)c1nc(N)c2c(N)nc(OC)cc2c1C#N,0.79,-0.35

# (continued)
Compound,KCNQ2 enhance,KCNQ2 enhance baseline
C/C(=N\NC(=O)c1c(Cl)cnn1C)c1cccc(NC(=O)C(C)C)c1,0.1,3.85
CCc1cc2ccccc2nc1SCC(=O)Nc1cc(OC)c(OC)cc1C(=O)O,0.7,-1.44
CCOC(=O)C1CCN(S(=O)(=O)c2ccc3c(c2)N(C(C)=O)CCO3)CC1,1.15,-0.16
CC(NS(=O)(=O)c1ccc(CCC(=O)N2CCN(C)CC2)cc1)c1ccccc1 (stereo not drawn),1.1,0.01
CC(=O)CCc1oc2ccc(NC(C)=O)cc2c1-c1ccc(C)o1,0.84,0
COc1ccc(-c2ccc(CCC(=O)O)o2)cc1,0.44,0.56
COc1cccc(NC(=O)c2ccc(NC(=O)C(C)(C)C)cc2)c1,1.23,0.16
CCC(=O)Oc1ccc(C(=O)Nc2ccccc2C(=O)NCC(C)C)cc1,1.15,-0.38
Cc1ccc2[nH]c(=O)c(CN(CCCN(C)C)C(=S)NCCc3ccccc3)cc2c1,3.85,1.18
COc1ccc(-c2noc(CCCC(=O)N3CCOCC3)n2)cc1,2.11,-1
NS(=O)(=O)c1cc(C(=O)NCCc2ccccn2)ccc1Cl,1.61,-1.02
Cc1nn(CC(=O)Nc2ccc3nc4n(c(=O)c3c2)CCCC4)c(C)c1[N+](=O)[O-],0.73,-0.03
CC1(C)CC(=O)c2ccc(O)cc2O1,0.56,1.27
Cc1ccc(S(=O)(=O)N2CCCCC2)cc1NC(=O)Cn1ccsc1=N,1.74,0.96
Cc1ccc2nc(SCC(=O)NCc3ccccc3)nc(=O)n2c1,1.83,-0.67

# Arranged by molar mass (smallest number first): some entries from above.
Compound,KCNQ2 enhance,KCNQ2 enhance baseline
CC1(C)CC(=O)c2ccc(O)cc2O1,0.56,1.27
NS(=O)(=O)c1cc(C(=O)NCCc2ccccn2)ccc1Cl,1.61,-1.02
CCC(=O)Oc1ccc(C(=O)Nc2ccccc2C(=O)NCC(C)C)cc1,1.15,-0.38

# Next section
Compound,KCNQ2 enhance,KCNQ2 enhance baseline
Cc1ccccc1NS(=O)(=O)CCCCC(Cl)(Cl)Cl,0.01,-2.29
O=C(COc1ccc(Br)cc1)Nc1ccc(S(=O)(=O)Nc2ccccn2)cc1,0.63,-0.22
COc1ccccc1C(=O)NNC(=O)c1cccc(C)c1,0.2,0.01
COc1ccc(NS(=O)(=O)c2ccc(NC(=S)NC(=O)c3ccc(F)cc3)cc2)nn1,1.77,-0.34
Cc1ccc2cc3c(nc2c1)N(c1ccccc1)CC3,0.28,0.34
Cc1cc(C(=O)Nc2cccc3ccccc23)c(C)o1,1.67,1.23
Cc1cc(/C=C2/NC(=O)N(c3ccccc3)C2=O)c(C)n1-c1cccnc1,0.48,-0.73
CC(C)(C)SCCNC(=O)CN(c1ccccc1)S(=O)(=O)c1ccccc1,0.05,-1.38
Cc1ccc(S(=O)(=O)N(C)C)cc1NC(=O)COC(=O)C1(c2ccccc2)CC1,1.28,-0.08
O=C(O)Cc1csc2ccccc12,0.11,-0.83
Cc1ccc(-c2noc(COc3ccccc3C)n2)cc1,0.03,0.78
CCOc1ccccc1NS(=O)(=O)c1cccs1,0.61,0.48
COc1ccc(C(=O)NC(=S)NNC(=O)c2cnccn2)cc1OC,0.71,0.08
CCc1c(C)nc2ncnn2c1Nc1ccccc1C,1.03,1.37
Cc1cccc(-n2c(C)nc3cc(C(=O)NCC4CCCO4)ccc32)c1 (stereo not drawn),0.54,0.7
Cc1ccc(NC(=O)C2CC(=O)n3c(nc4ccccc43)N2)cc1 (stereo not drawn),1.87,0.01
CC(C)CCNC(=O)CSc1nc2ccccc2s1,1.47,-0.98
CC1(C)CCC/C(=C\c2ccccc2)C1=O,0.05,-0.38
COc1cc2cc3c(N)c(C(=O)NCc4ccco4)sc3nc2cc1OC,0.19,-1.74
COc1ccccc1NC(=S)N1CCC(c2nc3ccccc3o2)CC1,0.6,-0.62
CCN(CC)CCOC(=O)c1c(C)oc2ccc(OC)cc12,1.89,-0.87
COCC(C)NS(=O)(=O)c1ccc(C)cc1 (stereo not drawn),1.9,0.02
Cc1cccc(NC(=O)Cn2cnc(S(=O)(=O)N3CCCC3)c2)c1C,0.33,-1.56
C=C(C)Cn1cnc2c(oc3nc4c(cc32)CCCC4)c1=O,0.2,1.86
Cc1ccc(S(N)(=O)=O)c(C)c1N1CCCC1=O,0.23,-0.55
NS(=O)(=O)c1ccc(CNC(=O)c2ccccc2SCC(=O)N2CCCC2)cc1,0.51,0.63
COc1ccc(S(=O)(=O)N2CCC(Cc3ccccc3)CC2)cc1NC(C)=O,0.08,-0.68
O=C(Cc1ccccc1)Nc1nonc1NC(=O)c1ccccc1,0.62,-0.07
COC(=O)CCN(C(=O)c1ccc(N2CCCC2)c([N+](=O)[O-])c1)c1ccccn1,1.31,2.33
CCCn1c(SCc2ccon2)nc2ccccc2c1=O,0.07,-0.59
Cc1ccnc(N2CCC(C(=O)NNC(=O)COc3cccc4ccccc34)CC2)n1,0.42,-0.7

# Bioassay records (PubChem)
